# GIRK2 act: activators of human GIRK2 potassium channels. P48051. HEK293-GIRK2 thallium flux, Thallos fluorescence. calls only for hits at 25 µM. 63,000 compounds, 0.05% hits. AID 1259325;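 active means among the strongest 0.2% of first-round signals and kept after retests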;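 further: first round at about 10 µM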
# Target sequence (P48051 whole entry, looked up): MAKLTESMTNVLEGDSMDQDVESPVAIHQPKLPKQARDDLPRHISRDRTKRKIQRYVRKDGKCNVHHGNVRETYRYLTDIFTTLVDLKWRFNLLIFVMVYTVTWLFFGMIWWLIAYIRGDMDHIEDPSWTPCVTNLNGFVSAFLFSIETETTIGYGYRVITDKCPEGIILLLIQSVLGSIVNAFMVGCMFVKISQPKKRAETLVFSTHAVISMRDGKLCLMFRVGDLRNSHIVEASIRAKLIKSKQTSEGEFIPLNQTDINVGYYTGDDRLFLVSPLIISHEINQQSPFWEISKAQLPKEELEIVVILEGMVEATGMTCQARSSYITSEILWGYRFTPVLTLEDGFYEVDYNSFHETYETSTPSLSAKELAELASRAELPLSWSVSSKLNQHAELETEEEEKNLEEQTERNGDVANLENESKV
# Calls only; i = inactive. This is a subset; rates above refer to the full screens.
SMILES,GIRK2 act
O=S(=O)(c1ccc2c(c1)OCCO2)N1CCN(c2cc(-n3cccn3)ncn2)CC1,i
COC(=O)c1ccc(Oc2c(C)oc3cc(OC(=O)N4CCOCC4)ccc3c2=O)cc1,i
O=C(c1cc(=O)c2ccccc2o1)N1CCC(Oc2ccccn2)CC1,i
CC(C)(C)CC(=O)N(Cc1ccoc1)Cc1cccs1,i
COc1ccc(NC(=O)N2CCCC(COCc3ccccc3)C2)c(OC)c1 (centres undefined),i
O=C(NCc1ccc2c(c1)OCO2)C(=O)NCC(c1cccs1)N1CCOCC1 (centres undefined),i
Cc1nc(-c2nnc(NC(=O)c3ccc4c(c3)CCCC4)o2)cs1,i
Cc1nnsc1C(=O)NCc1cc(-c2ccncc2)n(C2CCCC2)n1,i
O=C(Nc1ccc(Nc2cc(-n3ccnc3)ncn2)cc1)Nc1ccc2c(c1)OCO2,i
O=C(C1CCCC1)N1CCN(C(=O)C2CC2c2ccc3c(c2)OCO3)CC1 (centres undefined),i
COc1ccc(NC(=O)Cn2nc3c(-c4nc(-c5ccc(C)cc5)no4)cccn3c2=O)cc1,i
O=C(Cc1cccs1)NCC1CCN(C(=O)c2ccoc2)CC1,i
COCCNC(=O)Nc1ccc(N2CCCCC2=O)cc1,i
COc1ccccc1-c1nc(Cn2cccc(S(=O)(=O)N3CCCC3)c2=O)no1,i
Cc1cc(C)n(CC2CCN(S(=O)(=O)C3CC3)CC2)n1,i
O=C1C(=O)N(c2ccccn2)C(c2cccc([N+](=O)[O-])c2)C1=C(O)c1ccc(Cl)cc1 (centres undefined),i
Cc1nc2cc(NC(=O)CSc3nnc(CCc4nc5ccccc5[nH]4)o3)ccc2s1,i
Cc1ccc(NC(=O)C2C(C)Nc3ncnn3C2c2cccs2)c(C)c1 (centres undefined),i
Cc1cc(=O)n(CCNC(=O)c2cc3ccccc3o2)cn1,i
CCCCCn1c(=O)c2ccccc2n(Cc2nc(-c3cccc(OCC)c3)no2)c1=O,i

# Continued; it opens with the 3 that closed the last part.
SMILES,GIRK2 act
Cc1ccc(NC(=O)C2C(C)Nc3ncnn3C2c2cccs2)c(C)c1 (centres undefined),i
Cc1cc(=O)n(CCNC(=O)c2cc3ccccc3o2)cn1,i
CCCCCn1c(=O)c2ccccc2n(Cc2nc(-c3cccc(OCC)c3)no2)c1=O,i
COC(=O)CN1N=C(c2ccccc2)Cn2c1nc1c2c(=O)n(CC(=O)OC)c(=O)n1C,i
CCc1ccccc1NC(=O)Cn1c2ccc(NC(C)=O)cc2c(=O)n1-c1ccc(F)cc1,i
CCOC(=O)Cn1c(=O)c2c(nc3n2CCCN3c2ccc(CC)cc2)n(C)c1=O,i
COc1ccc(C(C)(C)C)cc1S(=O)(=O)N(C)C1CCCCC1,i
Cc1ccccc1NC(=O)Cn1nc2c(Oc3ccccc3)nccn2c1=O,i
Cc1noc(C)c1CN1CCN(C(=O)CN2C(=O)CCC2=O)CC1,i
COc1c2c(c(C)c3c1C(=O)OC3)OC1(C)CC(O)C34OC(O)(CCC3(C)C1C2)OC4(C)C (centres undefined),i
O=C(Nc1cccs1)N1CCOC2(CCOCC2)C1,i
CC(=O)C1=C(C)NC(SCC(=O)NC(C)(C)C)=C(C#N)C1c1ccc(Cl)cc1 (centres undefined),i
CCOC(=O)Cc1csc(NC(=O)CN(C)C(=O)c2ccc(=O)[nH]c2)n1,i
CS(=O)(=O)c1cccc(C(=O)Nc2cccc3ccccc23)c1,i
COc1ccc2nc(-n3nc(C)cc3NC(=O)c3ccccc3S(C)(=O)=O)sc2c1,i
Cc1ccc(NC(=O)Cn2c3ccccc3c3ncn(Cc4nc(C)no4)c(=O)c32)cc1,i
CCCS(=O)(=O)N1CCc2ccc(NC(=O)/C=C/c3ccco3)cc2C1,i
Cc1c(C(=O)NCC2CCC(c3nc4ccccc4n3C)CC2)cnn1-c1ccccc1 (centres undefined),i
CCN1CCc2c(sc(NC(=O)COc3ccc(Cl)cc3)c2-c2nc3ccccc3s2)C1,i
C=CCNc1oc(-c2ccc(COc3cccc(C)c3)o2)nc1C#N,i
Cn1nc(C(=O)NCCC(c2ccccc2)c2ccccc2)ccc1=O,i
CCOc1ccccc1CN1C(=O)C(O)(CC(C)=O)c2ccccc21 (centres undefined),i
O=C(NCCC(O)c1cccc2ccccc12)C(=O)Nc1ccc2c(c1)OCCO2 (centres undefined),i
Cc1nc(-n2nnc(C(=O)N3CCCC3)c2C)sc1C,i
Cc1nc(C)c(-c2nnc(NC(=O)COc3cccc4c3OC(C)(C)C4)o2)s1,i
Cc1cccc(OC(C)C(=O)NCCn2ncccc2=O)c1 (centres undefined),i
N#Cc1cccc(C(=O)NCC#CCOc2ccc3c(c2)OCO3)c1,i
COCCCNC(=O)CSc1nc(-c2cccc(OC)c2)[nH]c1-c1ccccc1,i
COc1ccc2c(=O)c3c(=O)n(-c4ccccc4)c(-c4ccccc4)nc3oc2c1,i
Cc1nc(-c2cccs2)sc1CNC(=O)C1Oc2ccccc2OC1C (centres undefined),i
COC(=O)c1ccc(NC(=O)C2c3cc(F)ccc3CCN2C(=O)OC)cc1 (centres undefined),i
Cc1ccc(NC(=O)C2CCC(CNS(C)(=O)=O)CC2)cc1F (centres undefined),i
COC(=O)c1sc2cccc(F)c2c1S(=O)(=O)Nc1cccc(OC)c1,i
CCCN1CCc2nc(-c3ccccc3)n(CC(=O)Nc3cc(C)ccc3OC)c(=O)c2C1,i
COc1ccc(OC)c(NC(=O)CSc2nccnc2N2CCN(c3ccccc3OC)CC2)c1,i
CS(=O)(=O)c1ccc2nc(N3CCN(C(=O)c4ccc(F)cc4)CC3)sc2c1,i
COc1ccc(-c2c(C)oc3cc(OC(=O)c4ccccc4OC)ccc3c2=O)cc1OC,i
Cc1cccc(C)c1N1CCN(CC(=O)Nc2ccc(Br)cc2)CC1,i
CNC(=O)CSc1nnc(N2CCN(C(=O)COc3ccccc3F)CC2)s1,i
N#Cc1c(NC(=O)/C=C/C2=Cc3ccccc3OC2)sc2c1CCCC2,i
Cc1ccc2c(Nc3ccc(F)c(C#N)c3)c(C(=O)N3CCCCC3C)cnc2n1 (centres undefined),i
CCc1ccccc1NC(=O)CCc1csc2nc(C3CC3)cn12,i
CN1C(=O)C(C)(C)COc2cc(NC(=O)NCCCc3ccccc3)ccc21,i
CCCCC[C@@H](O)CC[C@H]1[C@H](O)CC(=O)[C@@H]1CCCCCCC(=O)O,i
Cn1c(C2CCC(CNC(=O)C3COc4ccccc4O3)CC2)nc2ccccc21 (centres undefined),i
CNC(=O)c1ccc(N(C)S(=O)(=O)c2ccc(C)cc2)cc1,i
CCSc1ccccc1C(=O)N1CC(c2nc(-c3ccncc3)no2)C1,i
O=C(NCC1CCN(Cc2ccccc2)CC1)Nc1cccs1,i
Cc1c(C(=O)NCCn2nc(-c3ccco3)ccc2=O)cnn1-c1ccccc1,i
O=C(NCc1cccs1)Nc1ccc(-c2cnc3n2CCC3)cc1,i
O=C(Cn1cnc2c(-c3ccc(Cl)cc3)csc2c1=O)NCc1ccco1,i
O=C(CCCn1nnc2ccccc2c1=O)Nc1nc2ccccc2[nH]1,i
CCOC(=O)Cn1c(=O)c2c(nc3n2CCN3c2cc(C)ccc2C)n(C)c1=O,i
COc1cccc(NC(=O)N2CCN(c3nc4ccccc4n3Cc3ccccc3)CC2)c1,i
CC(/C=C/c1ccccc1)=N/Nc1nc2c(c(=O)[nH]c(=O)n2C)n1CC(C)O (centres undefined),i
Cc1csc(C(=O)NCCC(O)c2ccc3c(c2)OCO3)c1 (centres undefined),i
O=C(NC1CCCCC1)C1CCCN(c2nc3c(-c4ccccc4)csc3c(=O)[nH]2)C1 (centres undefined),i
CSc1ncccc1C(=O)N1CCC(S(C)(=O)=O)C1 (centres undefined),i
O=S(=O)(c1ccc(Cl)s1)N1CCC(Cn2ccnc2-c2ccccc2)CC1,i
CSc1nnc2n(CCC(=O)NC(C)C)c(=O)c3ccccc3n12,i
CN(CC(=O)NCCSc1nncn1C)c1nc2c(F)cccc2s1,i
CC1CCN(S(=O)(=O)N2CCN(c3ccc(F)cc3)CC2)CC1,i
CCn1c2ccccc2c2cc(NC(=O)c3ccc4nccnc4c3)ccc21,i
# Continued.
SMILES,GIRK2 act
COCCn1c(SCc2nc(-c3ccccc3Br)no2)nc2ccsc2c1=O,i
CCN1CCc2c(OCC(=O)N3CCCCCC3)cccc2C1=O,i
N#Cc1nc(-c2ccc(S(=O)(=O)N3CCCCC3)cc2)oc1NCCN1CCOCC1,i
CC(C)(C)c1ccc(C(=O)NCCCn2ncccc2=O)cc1,i
CCOC(=O)N1CCC(NC(=O)C2(c3ccc(F)cc3)CC2)CC1,i
C#CCSc1nnc2c(n1)[nH]c1ccccc12,i
Cc1cccc(NC(=O)c2c(N)n(/N=C\c3cccnc3)c3nc4ccccc4nc23)c1,i
CCCCC/C=C\C/C=C\CCCCCCCC(=O)O,i
CCNC(=O)N1CCN(CC(O)C2CC2)CC1 (centres undefined),i
CCOCCn1c(=O)c2c(nc3n2CCCN3c2ccc(Oc3ccccc3)cc2)n(C)c1=O,i
O=C(CSc1nnc2scc(-c3ccc(Cl)cc3)n12)Nc1ccc(F)cc1,i
CCC(=O)N1CCCC1c1nc2ccccc2n1CCOc1ccc(Cl)cc1 (centres undefined),i
N#Cc1cccc(C(=O)N2CCN(CC(O)c3ccco3)CC2)c1 (centres undefined),i
CC(C)c1ccccc1OCC(O)CNC(C)(C)C (centres undefined),i
COc1nn(C)cc1C(=O)Nc1nnc(SCC(=O)Nc2cccc(Cl)c2)s1,i
COc1ccc(Cn2c(=O)[nH]c3cc(-c4nc(-c5cc(OC)cc(OC)c5)no4)ccc3c2=O)cc1,i
O=C(Nc1ccc2c(c1)OCO2)C1(c2cccs2)CCCC1,i
CCCCNCCn1c(C)cn2c3c(=O)[nH]c(=O)n(C)c3nc12,i
Cc1cccc(NC(=O)Cn2nc3n(CCC(=O)NCC(C)C)c(=O)c4ccccc4n3c2=O)c1C,i
COC(=O)C1=C(C)NC(=O)NC1c1ccccc1OCc1ccccc1 (centres undefined),i
O=c1c2cc(-c3cccs3)nn2cnn1Cc1nc(-c2ccccc2)no1,i
CCOc1ccc(NC(=O)Cn2c(C)cc(C)c(S(=O)(=O)c3ccc(Cl)s3)c2=O)cc1,i
COc1nn(C)cc1C(=O)N(CCN1CCOCC1)c1nc2c(C)cc(Cl)cc2s1,i
Cc1cc(C)nc(SC(C(=O)O)c2ccccc2)n1 (centres undefined),i
Cc1cccc(S(=O)(=O)N2CCC(Cc3ccccc3)CC2)c1,i
CCOC(=O)N1CCN(C(=O)CSc2nnc(C(C)C)c3cnn(-c4ccc(C)cc4)c23)CC1,i
COc1ccccc1COc1cc(NC(=O)CSc2ccncc2)ncn1,i
CCCN1CCCc2cc(CCNC(=O)C(=O)NCc3ccc(Cl)cc3)ccc21,i
Cc1nn(C(C)(C)C)c(OC(=O)c2ccc(Cl)cc2)c1S(=O)(=O)c1ccccc1,i
O=C(c1ccccc1Cl)N1CCC(c2nnc(-c3ccco3)s2)CC1,i
CCOC(=O)Cn1c(=O)c2c(nc3n(-c4ccc(OCC)cc4)c(C)cn23)n(C)c1=O,i
CC(C)CCn1c(SCC(=O)NCc2ccc3c(c2)OCO3)nc2cn(C)nc2c1=O,i
Cc1ccc(S(=O)(=O)N(C)c2ccc(C(N)=O)cc2)cc1,i
CCOCCn1c(=O)c2c(nc3n2CCN3c2cc(C)ccc2C)n(C)c1=O,i
Cc1cc(NC(=O)CN2CCN(CC(O)c3cccs3)CC2)no1 (centres undefined),i
Cc1ccc(NC(=O)CN2CCC(C(=O)Nc3nc(-c4ccco4)cs3)CC2)c(C)c1,i
COc1ccc(CCNC(=O)CCc2nnc3ccc(-c4ccc(C)cc4)nn23)cc1OC,i
Cc1cccc(N2CC(c3noc(-c4cccc(C#N)c4)n3)CC2=O)c1 (centres undefined),i
CC(C)c1ccc(NC(=O)CSc2nnc3c4c5c(sc4ncn23)CCCC5)cc1,i
CN1CCN(NC(=O)C(=O)Nc2ccc(C(F)(F)F)cc2)CC1,i

# Gathered by group: the entries above with a Cl atom.
SMILES,GIRK2 act
O=C1C(=O)N(c2ccccn2)C(c2cccc([N+](=O)[O-])c2)C1=C(O)c1ccc(Cl)cc1 (centres undefined),i
CC(=O)C1=C(C)NC(SCC(=O)NC(C)(C)C)=C(C#N)C1c1ccc(Cl)cc1 (centres undefined),i
CCN1CCc2c(sc(NC(=O)COc3ccc(Cl)cc3)c2-c2nc3ccccc3s2)C1,i
O=C(Cn1cnc2c(-c3ccc(Cl)cc3)csc2c1=O)NCc1ccco1,i
O=S(=O)(c1ccc(Cl)s1)N1CCC(Cn2ccnc2-c2ccccc2)CC1,i
O=C(CSc1nnc2scc(-c3ccc(Cl)cc3)n12)Nc1ccc(F)cc1,i
CCC(=O)N1CCCC1c1nc2ccccc2n1CCOc1ccc(Cl)cc1 (centres undefined),i
COc1nn(C)cc1C(=O)Nc1nnc(SCC(=O)Nc2cccc(Cl)c2)s1,i
CCOc1ccc(NC(=O)Cn2c(C)cc(C)c(S(=O)(=O)c3ccc(Cl)s3)c2=O)cc1,i
COc1nn(C)cc1C(=O)N(CCN1CCOCC1)c1nc2c(C)cc(Cl)cc2s1,i
CCCN1CCCc2cc(CCNC(=O)C(=O)NCc3ccc(Cl)cc3)ccc21,i
Cc1nn(C(C)(C)C)c(OC(=O)c2ccc(Cl)cc2)c1S(=O)(=O)c1ccccc1,i
O=C(c1ccccc1Cl)N1CCC(c2nnc(-c3ccco3)s2)CC1,i

# Laid out differently: 2 of the compounds above
> COc1ccc(CCNC(=O)CCc2nnc3ccc(-c4ccc(C)cc4)nn23)cc1OC
  GIRK2 act: i

> Cc1cccc(N2CC(c3noc(-c4cccc(C#N)c4)n3)CC2=O)c1 (centres undefined)
  GIRK2 act: i

# Additional entries follow:
SMILES,GIRK2 act
Cc1nnsc1C(=O)NCC#CCOc1ccc2c(c1)OCO2,i
COc1ccc(NC(=O)C(=O)NCCC(O)c2ccccc2)cc1Cl (centres undefined),i
COc1ccccc1NC(=O)N1CCC2(CC1)NC(=O)N(CCOc1ccccc1)C2=O,i
COc1ccccc1OCC#CCNC(=O)COc1ccc(Cl)cc1,i
COC(=O)c1ccccc1NC(=O)CSc1nccn2nc(-c3ccc(F)cc3)cc12,i
CN(CCO)C(=O)C1(c2ccc(F)cc2)CC1,i

# Screens deposited in PubChem BioAssay by Vanderbilt University.
